# Screens deposited in PubChem by several laboratories.
# PKD1 kinase inh: inhibitors of human PKD1 kinase, biochemical, fluorescence polarization; PKD1 kinase fluorescence polarization assay; inhibition, %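 (about 10 µM by stock and volumes)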; 200,000 tested, 0.056% active;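 active = inhibition of 50% or more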;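 also: controls were vehicle for no effect and a reference inhibitor for full effect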
# RGS16-Gao: modulators of RGS16 binding to Galphao, primary screen, biochemical, human proteins, multiplexed bead flow cytometry | Regulator of G-protein signaling 16 (Homo sapiens) + Guanine nucleotide-binding protein … | bead-based flow cytometry RGS16-Galphao binding, fluorescence; actives lie on both sides | binding response (% of control), % at 10 µM | 220,000 tested, 0.38% active | AID 1441, 2008;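 active = below 25% or above 175%, edge rows of some plates excepted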;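 also: Galphao activated by GDP with aluminum fluoride before binding; 100% = wells without compound and 0% = beads without RGS; some results beyond the cut were filed as inactive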
# Target sequence (O15492 whole entry, looked up): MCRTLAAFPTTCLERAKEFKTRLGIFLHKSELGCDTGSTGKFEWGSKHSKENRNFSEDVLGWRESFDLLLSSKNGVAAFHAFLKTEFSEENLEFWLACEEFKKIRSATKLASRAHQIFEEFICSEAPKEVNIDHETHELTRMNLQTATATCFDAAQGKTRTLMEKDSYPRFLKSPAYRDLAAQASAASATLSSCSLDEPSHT
# Target sequence (P09471 whole entry, looked up): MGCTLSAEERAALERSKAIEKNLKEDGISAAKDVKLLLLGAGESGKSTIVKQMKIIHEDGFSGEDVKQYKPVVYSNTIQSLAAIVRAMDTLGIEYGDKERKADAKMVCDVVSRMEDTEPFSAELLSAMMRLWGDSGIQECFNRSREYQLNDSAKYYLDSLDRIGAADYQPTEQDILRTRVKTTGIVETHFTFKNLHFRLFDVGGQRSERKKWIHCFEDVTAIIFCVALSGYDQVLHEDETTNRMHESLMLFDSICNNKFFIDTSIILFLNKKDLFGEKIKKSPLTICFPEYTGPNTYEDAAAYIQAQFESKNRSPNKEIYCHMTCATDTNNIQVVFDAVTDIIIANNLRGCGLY
# GALR2 ag: GALR2 receptor agonists, primary screen, cell-based; GALR2-expressing cells, agonist activation read-out; 140,000 tested, 0.48% active; AID 803, 2007; activation, %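 (tested at 5 µM)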; Galanin receptor type 2 (Homo sapiens), O43603;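 active = above mean plus 3 SD of all compounds, about 5% in these data, not always enough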;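 also: 0% = vehicle buffer wells and 100% = reference agonist at full effect; tested in CHO reporter cells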
# Target sequence (O43603 whole entry, looked up): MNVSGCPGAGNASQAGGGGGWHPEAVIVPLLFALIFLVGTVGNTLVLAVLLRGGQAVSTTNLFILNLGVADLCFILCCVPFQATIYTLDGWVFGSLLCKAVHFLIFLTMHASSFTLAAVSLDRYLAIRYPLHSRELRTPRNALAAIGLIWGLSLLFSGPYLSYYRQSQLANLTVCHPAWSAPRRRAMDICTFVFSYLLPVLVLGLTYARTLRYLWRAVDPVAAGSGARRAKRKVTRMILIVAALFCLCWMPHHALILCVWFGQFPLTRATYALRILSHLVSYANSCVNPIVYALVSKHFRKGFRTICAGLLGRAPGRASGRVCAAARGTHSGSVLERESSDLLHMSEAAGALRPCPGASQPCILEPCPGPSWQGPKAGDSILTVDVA
# HSV replic up: enhancers of HSV replication in host cells, fold increase, host cell viability; HSV replication augmentation in cells; maximum fold increase; 220,000 tested, 0.005% active;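 active = peak rise of 1.5-fold or more in the series; inconclusive = self-fluorescent or not available for retest; tested in PC3 cells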;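 also: first round at 10 µM; read as green reporter fluorescence; hits show the peak of a series up to 25 µM; 1 = signal of infected wells without compound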
# INS promoter inh: inhibitors of insulin promoter-driven GFP, primary screen, imaging, TRM-6 cells (human fetal islet line), eGFP reporter, cell count. inhibition, % at 2 µM. 130,000 tested, 0.9% active. reporter expression induced with tamoxifen;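 active = inhibition above the mean plus 3 SD, with well images judged a real hit on visual review, cut at about 60% in these data, passing the limit was not always enough; inconclusive = inhibition over the cutoff but images rejected on review; inactive = inhibition not above the cutoff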
# INS promoter inh cell count: also measured in INS promoter inh; calls as there; normalized cell count, %; measured here: cell count, toxicity; reference of the scale not given here;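 cells exposed to compound for 48 h; stained nuclei by imaging scaled within each plate; lower means fewer cells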
# HSV replic up primary fold: recorded beside HSV replic up, whose call it bears; fold increase; compound at 10 µM; measured here: primary screen fold increase 10 uM; tested in PC3 cells;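 GFP signal in the first replicate; 1 = infected wells without compound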
# An asterisk follows results filed as active; i = inactive; ? = inconclusive; · = no result given.
SMILES,PKD1 kinase inh,RGS16-Gao,GALR2 ag,HSV replic up,HSV replic up primary fold,INS promoter inh,INS promoter inh cell count
COc1ccc(CN2CC(C(=O)NCCC3=CCCCC3)CC2=O)cc1 (centres undefined),3,101,-0.4,i,1,-3,76
COC12NC(=O)N(C)C1(OC)C(=O)N(C)C(=O)N2C (centres undefined),3,106,-1.9,i,0.98,27,53
Cc1ccc(NC(=O)c2ccco2)c(NC(=O)c2cccs2)c1,-4,97,-0.1,i,0.86,-38,53
COc1ccc(NC(=O)CCNS(=O)(=O)c2ccc3c(c2)CCC(=O)N3)cc1,-4,96,1.1,i,0.86,-52,79
O=C(Nc1cccc(S(=O)(=O)N2CCCCCC2)c1)c1cc(=O)c2ccccc2o1,-1,100,·,i,0.94,·,·
CCN(CC)C(=O)N1c2ccccc2C=Cc2ccccc21,5,100,-0.6,i,0.97,-31,76
CCCCOC(=O)c1cc(=O)[nH]c(=O)[nH]1,5,101,·,i,1.1,40,47
Cc1c(-c2ccc(F)cc2)nc(N)c(C#N)c1-c1cccs1,-5,98,-1.4,i,1.1,-3,85
Cc1csc(SCC(=O)Nc2nc3ccccc3s2)n1,-3,93,0.5,i,0.9,-19,283
CC(C)CN1CCNC(=O)C1CC(=O)NCCc1ccc(C(F)(F)F)cc1 (centres undefined),-1,94,·,i,0.87,·,·
Cc1c(NC(NC(=O)CC(C)C)C(Cl)(Cl)Cl)c(=O)n(-c2ccccc2)n1C (centres undefined),-1,103,·,i,0.9,·,·
COCCNC(=O)c1c(N)n(CCC2=CCCCC2)c2nc3ccccc3nc12,3,99,19*,?,·,-26,142
CC(=O)c1ccc(OCCCC(=O)N2CCN(S(=O)(=O)c3cccs3)CC2)cc1,-24,107,-2.3,i,1.1,21,107
COc1ccc(C(=O)NCCSCc2ccco2)cc1OC,-6,110,-2.3,i,0.86,-15,96
CC(=O)c1cc(F)c(N2CCN(c3ccc([N+](=O)[O-])cc3F)CC2)cc1C,-6,103,-3.1,i,0.95,·,·
CCOC(=O)c1oc2cc(C)cc(C)c2c1C,·,99,·,i,0.86,·,·
O=C(Nc1cnn(Cc2ccc(Cl)cc2)c1)c1cccs1,·,101,·,i,0.95,·,·
Cc1cccc(NC(=S)NCc2cccs2)c1C,-6,98,-0.8,i,0.97,24,61
O=C1CC(C(=O)N2CCN(c3ccc(F)cc3)CC2)CN1CCc1ccccc1 (centres undefined),4,100,-2.5,i,1,·,·
C(=N\Nc1nc2ccccc2s1)/c1ccco1,6,102,-1.9,i,0.95,·,·
O=C(NC(C(=O)c1ccccc1)n1c(=O)cc[nH]c1=S)c1ccccc1 (centres undefined),8,81,-0.7,i,1.1,24,158
CCCCc1ncc(CN2CCC(CC3CCCCO3)(C(=O)OCC)CC2)[nH]1 (centres undefined),-4,114,·,i,0.97,·,·
CS(=O)(=O)N(CC(=O)N1CCOCC1)Cc1ccccc1,-3,102,-2.7,·,·,24,112
CN(C)C(=O)c1nc(C#N)c(N(C)C)o1,-15,98,-1.6,i,1,11,109
COc1ccccc1N1CCN(c2cc(=O)n(-c3ccc(Br)cc3)c(=O)[nH]2)CC1,-1,99,-4.0,i,1.1,0,90

# Record cards (already shown). Order of values: PKD1 kinase inh, RGS16-Gao, GALR2 ag, HSV replic up, HSV replic up primary fold, INS promoter inh, INS promoter inh cell count
# CN(C)C(=O)c1nc(C#N)c(N(C)C)o1 in the list: -15, 98, -1.6, i, 1, 11, 109
# COc1ccc(CN2CC(C(=O)NCCC3=CCCCC3)CC2=O)cc1 (centres undefined) in the list: 3, 101, -0.4, i, 1, -3, 76
# CCN(CC)C(=O)N1c2ccccc2C=Cc2ccccc21 in the list: 5, 100, -0.6, i, 0.97, -31, 76

# Exported with tabs: 3 of the compounds above.
structure	PKD1 kinase inh	RGS16-Gao	GALR2 ag	HSV replic up	HSV replic up primary fold	INS promoter inh	INS promoter inh cell count
Cc1ccc(NC(=O)c2ccco2)c(NC(=O)c2cccs2)c1	-4	97	-0.1	i	0.86	-38	53
COCCNC(=O)c1c(N)n(CCC2=CCCCC2)c2nc3ccccc3nc12	3	99	19*	?	·	-26	142
CC(=O)c1cc(F)c(N2CCN(c3ccc([N+](=O)[O-])cc3F)CC2)cc1C	-6	103	-3.1	i	0.95	·	·

# The listing continues.
SMILES,PKD1 kinase inh,RGS16-Gao,GALR2 ag,HSV replic up,HSV replic up primary fold,INS promoter inh,INS promoter inh cell count
CCC(C)NC(=O)c1cn(CC)c2cc(N3CCN(C)CC3)c(F)cc2c1=O (centres undefined),·,91,·,i,0.96,·,·
O=C1c2ccccc2S(=O)(=O)N1Cc1nnc(-c2ccccc2Br)o1,-11,100,-1.0,i,1.1,-33,32
COC(=O)C1=C(O)C2(C(=O)O)CC(C(=O)OC)=C(O)C(C(=O)O)(C1)C2,·,100,·,i,1.1,·,·
CCCCOc1cccc(-c2nnc(NC(=O)CSc3ccc(C)cc3)s2)c1,-9,107,0.5,i,0.86,·,·
CC(=O)c1ccc(Nc2ccc(-c3ccccc3C)nn2)cc1,6,107,·,i,0.93,·,·
CC(C)(C)N1C(=O)Cc2c1nc(N)c1c(N)nc(N3CCCCC3CO)c(C#N)c21 (centres undefined),3,76,0.1,i,1.1,27,85
Fc1ccc(CNC(=S)Nc2ccc(Cl)cc2)cc1,1,104,-1.0,i,0.9,-10,104
O=C(NC1CCCCC1)N1CCC(n2cnc3ccccc32)CC1,10,100,-2.2,i,0.9,·,·
C/C(=C\C(=O)c1ccc(Br)cc1)N1CCCCC1,1,88,-0.1,i,0.78,14,126
Cc1csc(NC(=O)[C@@H](NC(=O)c2ccccc2)C(C)C)n1,0,51,-2.6,i,1,27,50
O=C(CSc1ncn[nH]1)Nc1ccc(Cl)c(S(=O)(=O)N2CCOCC2)c1,-10,100,·,i,0.95,36,91
CCc1ccc(OCC(=O)NC(=S)Nc2ccc(Br)c(C)n2)cc1,-7,100,·,i,0.87,·,·
C=CCNC(=O)c1cc(C(=O)C(C)c2ncc(C(F)(F)F)cc2Cl)c[nH]1 (centres undefined),4,104,·,i,0.77,60,132
O=C(CNC(=O)C1CCCCC1)Nc1cc(Cl)cc(Cl)c1,1,102,-0.6,i,1,52,121
Cc1ccc(-c2ccc(SCC(=O)NCC3CCCO3)nn2)cc1 (centres undefined),7,102,·,i,1,50,59
Nc1c([N+](=O)[O-])cnnc1-c1ccccc1,-11,97,-1.2,i,1,·,·
c1cnn(-c2nc(N3CCOCC3)nc(N3CCOCC3)n2)c1,-8,103,-2.1,i,0.89,·,·
COc1ccc(/C=N/NC(=O)C(=O)Nc2ccccn2)cc1OC,-13,104,-1.8,i,0.85,0,85
O=C(NCCCO)/C(=C/c1ccco1)NC(=O)c1ccc(Br)o1,-5,94,0.2,i,0.92,27,100
c1ccc(OCc2nc3c4c(ncn3n2)-c2ccccc2CC42CCCC2)cc1,0,100,-1.8,i,1,-43,98
CON/C=C(\C=Nc1ccc(F)cc1)c1ncc(C(F)(F)F)cc1Cl,-14,101,-2.7,i,1,-45,96
COc1cc2c(cc1C=O)OC(C)C2 (centres undefined),-1,98,·,i,1.1,21,109
COc1ccc(/C=N/NC(=O)c2ccc3c(c2)OCCO3)cc1[N+](=O)[O-],-5,102,-0.5,i,0.97,·,·
CC(NC(=O)c1ccc(NS(C)(=O)=O)cc1)c1ccccc1 (centres undefined),-6,98,-3.7,i,0.96,25,141
Cc1ccc(C(C(=O)NCc2ccco2)N(C(=O)CNC(=O)c2cccs2)c2c(C)cc(C)cc2C)cc1 (centres undefined),2,116,-0.3,i,0.8,46,151

# In the list so far, five contain bromine.
SMILES,PKD1 kinase inh,RGS16-Gao,GALR2 ag,HSV replic up,HSV replic up primary fold,INS promoter inh,INS promoter inh cell count
COc1ccccc1N1CCN(c2cc(=O)n(-c3ccc(Br)cc3)c(=O)[nH]2)CC1,-1,99,-4.0,i,1.1,0,90
O=C1c2ccccc2S(=O)(=O)N1Cc1nnc(-c2ccccc2Br)o1,-11,100,-1.0,i,1.1,-33,32
C/C(=C\C(=O)c1ccc(Br)cc1)N1CCCCC1,1,88,-0.1,i,0.78,14,126
CCc1ccc(OCC(=O)NC(=S)Nc2ccc(Br)c(C)n2)cc1,-7,100,·,i,0.87,·,·
O=C(NCCCO)/C(=C/c1ccco1)NC(=O)c1ccc(Br)o1,-5,94,0.2,i,0.92,27,100

# Further compounds
SMILES,PKD1 kinase inh,RGS16-Gao,GALR2 ag,HSV replic up,HSV replic up primary fold,INS promoter inh,INS promoter inh cell count
O=C(NCc1ccccn1)c1cnc2sccn2c1=O,6,92,-3.1,i,0.96,·,·
Cc1ccc(C(=O)Nc2ncc3c(Cl)cccc3n2)cc1,18,104,-0.3,i,0.85,-25,76
Cc1oc(CC(C)C)cc1C(=O)NCCCC(=O)O,1,101,·,i,1,·,·
O=C(CSc1nnc(NC(=O)C2CCC2)s1)Nc1ccc(N2CCOCC2)cc1,-5,99,-1.8,i,0.9,14,116
CCC(C)(C)C1CCc2c(sc(NC(=O)c3ccccc3C(=O)O)c2C#N)C1 (centres undefined),·,94,·,i,0.91,·,·
CN(C)CCOC(=O)Cc1ccc(Cl)cc1,-5,102,-1.3,i,0.95,-9,89
Nc1nnc(SCc2cc3c(cc2Cl)OCO3)s1,-4,99,-1.3,i,0.99,-17,85
O=C(NCc1ccccc1)c1ccc(-c2ccccc2C(F)(F)F)o1,-2,106,-0.6,i,0.99,29,107
COc1ccc(C(=O)OCC(=O)NC(=O)NC2CCCC2)c(OC)c1,5,104,·,i,0.92,·,·
CS(=O)(=O)N1CCn2c1nc1ccccc12,2,91,·,i,1.1,·,·
Cc1cccc(N2C(N)=C(C#N)C(C#N)(C#N)C2c2ccccc2)c1 (centres undefined),24,104,0.3,i,0.88,·,·
Cn1cnnc1SCC(=O)NC(=O)NC1CCCC1,-24,95,-0.7,i,0.83,-19,79
O=C(NCCCN1CCCC1=O)c1ccc2c(c1)ncn2C1CCCCC1,-6,114,-1.0,·,·,-45,62
O=C(NNS(=O)(=O)c1ccc(F)c(Cl)c1)c1cccc(S(=O)(=O)N2CCOCC2)c1,-1,38,1.1,i,0.89,-45,75
CCN(CC)c1ccc(/C=N/OC(C)C(=O)Nc2ccc(C)cc2)cc1 (centres undefined),9,104,-1.0,i,0.99,-23,99
COc1ccc(N(C(=O)/C=C/c2ccc(OC)c(OC)c2)C2=CC3CCC(C2)N3C)cc1 (centres undefined),9,103,·,i,0.96,14,113
Cn1cc(C=C2C(=O)OC3(CCCCC3)OC2=O)c2ccccc21,·,101,·,i,1.1,·,·
Cc1cc(C(=O)CSc2nnnn2-c2ccccc2)c(C)n1-c1ccc2c(c1)OCO2,-3,99,-0.5,i,1.1,16,127
CN1CCN(NC(=O)c2cccc(S(=O)(=O)N3CCCCCC3)c2)CC1,-4,98,·,i,0.9,·,·
Cc1cc(C)c(C)c(OCC(=O)NCc2nc(-c3ccccc3)no2)c1,-7,105,-0.4,i,0.86,-45,106
CCn1c(Cc2ccccc2)nnc1SCC(=O)Nc1ccc(N)cc1,-4,99,-1.6,i,0.68,·,·
CC(=O)N/C(=C/c1ccccc1)C(=O)NCCO,5,102,-2.9,i,1,·,·

# An unsorted share of the library; 1.3% or so of the library scored in one or more.
